Mtb growth: Mycobacterium tuberculosis H37Rv growth inhibition, putative kinase inhibitor library, confirmatory dose response (AID 2842); 24,000 tested, 5.2% active; inhibition, % at 10 µg/mL, or IC90 in µg/mL where a hit was titrated; M. tuberculosis H37Rv growth inhibition; higher % means a stronger effect; some inactives read as strong as hits;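 active = confirmed in a dose series; inconclusive = mostly over 85% at the one dose but not retested; inactive = below 85% or not confirmed; about a fifth of its hits are not listed in these tables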;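 note: bacteria incubated one week before Alamar blue readout; 0% = bacteria only wells and 100% = bacteria with high antibiotic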
Starred values were filed as active, the others as inactive; ? = inconclusive.

nr	compound	Mtb growth
1	Cc1ccc(Nc2nc(-c3cccnc3)nc3ccccc23)cc1	11%
2	N#Cc1ccc(-c2csc(NC(=O)c3cc(Cl)ccc3Cl)n2)cc1	91%
3	Cc1ccc(-c2nnc3ccc(SCC(=O)NCc4ccccc4Cl)nn23)cc1	15%
4	N#Cc1c(NC(=O)CC(=O)CSc2ncnc3sc4c(c23)CCC4)sc2c1CCCC2	-4%
5	O=C(O)CN1C(=O)/C(=C2\SC(=Nc3ccc(Br)cc3)NC2=O)c2ccccc21	-5%
6	CC(=O)c1ccc(NC(=O)c2ccc(=O)[nH]n2)cc1	-10%
7	COc1ccc(C(=O)Nc2nnc(-c3ccc(Br)cc3)s2)c(OC)c1	2%
8	CCCc1nc(SCC(=O)c2ccc(Cl)cc2)c2c(=O)n(C)c(=O)n(C)c2n1	-17%
9	Cc1csc2ncc(C(=O)Nc3ccc(F)cc3)c(=O)n12	0%
10	NC(=O)c1nc(-c2cccc(Cl)c2)nc2c1[nH]c(=O)n2-c1ccccc1F	3%
11	CCc1nnc(NS(=O)(=O)c2ccc(N3C(=O)c4ccc(C(=O)O)cc4C3=O)cc2)s1	-1%
12	NS(=O)(=O)c1ccc(NC(=O)CN2C(=O)c3ccccc3S2(=O)=O)cc1	-9%
13	CCCn1c2c(c(=O)[nH]c1=O)C(c1ccc(OC)cc1OC)C1=C(COC1=O)N2 (stereo unspecified)	21%
14	CCOCCCNC(=O)Cc1cc(=O)[nH]c(=O)[nH]1	-8%
15	CCCC(=O)Nc1c(C(=O)Nc2cccc(Cl)c2)oc2ccccc12	0%
16	CCOC(=O)c1c(-c2ccc(C)cc2)csc1NC(=O)CSc1nnnn1-c1ccccc1	23%
17	CCOc1ccc(C(=O)NC2CC(=O)N(c3ccc(C)c(C)c3)C2)cc1 (stereo unspecified)	-1%
18	Nc1nc(SCC(=O)Nc2nc3ccccc3s2)[nH]c(=O)c1NC(=O)c1ccccc1	-5%
19	CCOC(=O)c1oc2ccccc2c1NC(=O)c1ccc(OC(C)C)cc1	11%
20	O=C(Cn1cc(C(=O)c2ccc(Cl)cc2)c(=O)c2cc3c(cc21)OCCO3)Nc1ccc(F)c(F)c1	2%
21	N#C/C(=C\c1ccc(-c2cccc(Cl)c2)o1)c1nc2ccccc2c(=O)[nH]1	9%
22	Cc1nnc(SCCn2c(N3CCCCC3)nc3c2c(=O)n(C)c(=O)n3C)s1	-2%
23	CCOC(=O)c1c(NC(=O)/C=C/c2cccc([N+](=O)[O-])c2)sc2c1CCCC2	6%
24	CCOc1cccc2sc(N3CCCC3)nc12	25%
25	Cc1ccc2cc(CCNC(=O)c3cccc([N+](=O)[O-])c3)c(=O)[nH]c2c1C	-6%
26	Cc1cc(C)cc(-n2c(-c3ccccc3)cn3c4c(=O)n(CC(N)=O)c(=O)n(C)c4nc23)c1	-9%
27	CCOC(=O)c1nn(-c2ccc(C)cc2)c(=O)c2c(NC(=O)c3cc(OC)cc(OC)c3)scc12	-9%
28	COc1cccc(C2/C(=C(\O)c3ccc(C)cc3)C(=O)C(=O)N2c2cc(C)on2)c1OC (stereo unspecified)	-23%
29	Cc1cc(C)c2nc(NC(=O)c3ccc([N+](=O)[O-])s3)sc2c1	-2%
30	NS(=O)(=O)c1ccc(CCNC(=O)c2ccc3c(c2Cl)C(=O)c2ccccc2C3=O)cc1	-8%
31	CCCC(=O)Nc1c(C(=O)Nc2ccc(F)cc2)oc2ccccc12	0%
32	Cc1ccc(NC(=O)C(=O)Nc2cc3c4c(c2)CCC(=O)N4CCC3)cc1	5%
33	CCOc1ccc(C(=O)CSc2nnnn2-c2ccc(OCC)cc2)cc1	-27%
34	NC(=O)C1CCN(C(=O)C(=O)Nc2c3c(nn2-c2ccc(Cl)cc2)CSC3)CC1	-15%
35	c1ccc(-c2csc3ncnc(Sc4ccc5c(c4)OCCO5)c23)cc1	-7%
36	COc1ccc(Cn2cc3c(-c4ccc(C)c(C)c4)nnc-3c3cc(OC)c(OC)cc32)cc1	25%
37	CCn1c(SCCCN2C(=O)c3cccc4cccc(c34)C2=O)nnc1-c1cccnc1	0%
38	Cc1ccc2sc(NC(=O)c3ccc(N(C)C)cc3)nc2c1C	-5%
39	S=c1[nH]nc(-c2ccc(Cl)cc2)n1Cc1ccco1	36%
40	O=C(COc1ccc(Cl)cc1Cl)Nc1nnc(-c2ccccn2)o1	-12%
41	CC(=O)Cn1c(=O)c2c(nc3n(-c4ccc(C)c(Cl)c4)c(C)cn23)n(C)c1=O	-2%
42	O=C(NCCc1csc2nc(-c3ccc(F)cc3)nn12)C(=O)Nc1ccc(Cl)cc1	-5%
43	O=C(Nc1ccccc1)c1cnc2n(c1=O)CCS2	3%
44	O=C(Nc1nnc(-c2ccc(Cl)cc2)o1)c1ccc([N+](=O)[O-])o1	0.26µg/mL*
45	COc1cccc(NS(=O)(=O)c2cc3c4c(c2)CCC(=O)N4CCC3)c1	0%
46	O=C(NCc1cccs1)NC1CC(=O)N(c2ccc3c(c2)OCCO3)C1 (stereo unspecified)	16%
47	Cc1ccc(OCC2Cn3c(nc4c3c(=O)[nH]c(=O)n4C)O2)cc1 (stereo unspecified)	-2%
48	CCC(=O)Nc1nnc(-c2ccco2)o1	99%
49	CC1CN(S(=O)(=O)c2ccc(NC(=O)CCN3C(=O)c4ccccc4C3=O)cc2)CC(C)O1 (stereo unspecified)	-9%
50	Cc1nc2sc(C(c3ccc(F)c(F)c3)N3CCN(C(=O)c4ccco4)CC3)c(O)n2n1 (stereo unspecified)	-3%
51	Cc1cccc(NC(=O)NCc2ccc3[nH]c(C)cc3c2)c1	?
52	Cc1cccc(C(c2sc3nc(C)nn3c2O)N2CCCC(C)C2)c1 (stereo unspecified)	6%
53	Nc1nc(SCC(=O)Nc2ccccc2)[nH]c(=O)c1NC(=O)c1ccco1	-17%
54	COc1ccc2cc(CCNC(=O)c3ccccc3Br)c(=O)[nH]c2c1	-1%
55	O=C(C1CCCN(S(=O)(=O)c2ccccc2)C1)N1CCc2ccccc2C1 (stereo unspecified)	2%
56	O=C1C(=O)N(CN2CCN(c3ccccc3Cl)CC2)c2ccccc21	5%

(further entries)
nr	compound	Mtb growth
57	CC(C)c1nnc(NC(=O)CSc2nc3ccccc3s2)s1	7%
58	COC(=O)c1cc(NNC(N)=S)ncn1	2%
59	CC1CCCN(S(=O)(=O)c2ccc(/C(O)=C(\C#N)c3nc4ccccc4n3C)cc2)C1 (stereo unspecified)	16%
60	CCOC(=O)c1nn(-c2ccc(C)cc2)c(=O)c2c(NC(=O)CSCc3ccccc3)scc12	-7%
61	CCCOc1ccc(/C(O)=C2\C(=O)C(=O)N(CCN(C)C)C2c2ccc(C)cc2)cc1 (stereo unspecified)	-2%
62	CC(C)N1CCc2c(sc(NC(=O)c3cc(Cl)cc(Cl)c3)c2C#N)C1	3%
63	COc1cc(C2NC(=O)NC(C)=C2C(=O)Nc2ccc(F)c(F)c2)ccc1O (stereo unspecified)	-13%
64	COCC(C)Nc1ncnc(N)c1[N+](=O)[O-] (stereo unspecified)	0%
65	O=C(Nc1c(C(=O)Nc2ccc(F)c(F)c2)oc2ccccc12)c1ccc2c(c1)OCO2	-13%
66	O=C(COc1ccc(Br)cc1)N=Nc1c(O)[nH]c2ccccc12	-8%
67	Cc1cccc(Cn2c(SCC(=O)c3ccccc3)nc3c2c(=O)[nH]c(=O)n3C)c1	10%
68	COc1ccc(/C=N/Nc2ncnc3nc[nH]c23)c(OC)c1	-2%
69	O=C(COc1ccc(Cl)cc1)NC1CC(=O)N(c2cccc(F)c2)C1 (stereo unspecified)	1%
70	CCC(=O)Nc1nnc(-c2ccc(Cl)s2)o1	8.6µg/mL*
71	O=C(OCn1nnc2ccccc2c1=O)C(c1ccccc1)c1ccccc1	8.9µg/mL*
72	O=C(C(=O)N1CCN(C(=O)c2ccco2)CC1)c1c[nH]c2ccccc12	-8%
73	O=C(NNc1nc2c(F)cc(F)cc2s1)c1coc2ccccc2c1=O	3.3µg/mL*
74	Cn1cc(SCC(=O)Nc2ccccc2C(F)(F)F)c2ccccc21	12%
75	COc1cc(OC)c(-n2cc(-c3ccc(C)cc3)[nH]c2=O)cc1Cl	18%
76	CC(C)(C)n1nc2c(c1NC(=O)c1ccc(Br)o1)CS(=O)C2 (stereo unspecified)	-3%
77	COc1ccc(CCNC(=O)C(=O)NCC(c2cccs2)N2CCc3ccccc3C2)cc1 (stereo unspecified)	11%
78	Cc1c(Cc2ccc3c(c2)OCO3)sc(NC(=O)c2ccc(Cl)s2)c1C#N	-2%
79	CCOC(=O)c1nn(-c2ccc(C(C)C)cc2)c(=O)c2c(NC(=O)c3ccc(S(=O)(=O)N4CCOCC4)cc3)scc12	5%
80	CC(=O)OCC#CCSc1nc2ccccc2c(=O)[nH]1	34%
81	Oc1cccc(C2=NN3C(C2)c2cc(Cl)ccc2OC3c2cccnc2)c1 (stereo unspecified)	84%
82	CCCCC(=O)Nc1c(C(=O)Nc2ccccc2F)oc2ccccc12	-4%
83	Cc1csc(NC(=O)CSc2nc(N)c(NC(=O)c3ccc(F)cc3)c(=O)[nH]2)n1	-4%
84	CCOCC(=O)Nc1c(C(=O)OCC)oc2ccccc12	11%
85	Cc1cccc(-n2c(=O)[nH]c3c(C(N)=O)nc(CC(C)C)nc32)c1	-4%
86	Cn1c(=O)c2c(SCC(=O)Nc3ccccc3F)nc(-c3ccc([N+](=O)[O-])cc3)nc2n(C)c1=O	-1%
87	CN1CCc2c(sc(NC(=O)c3ccc4ccccc4c3)c2C(N)=O)C1	12µg/mL*
88	CCc1nc(SCC(=O)Nc2ccc(Cl)c(Cl)c2)c2c(=O)n(C)c(=O)n(C)c2n1	-2%
89	Cc1ccc(C)c2[nH]c(=O)c(CCNC(=O)c3ccc(C(C)(C)C)cc3)cc12	-2%
90	C=CCOCC(O)Cn1c(N2CCCCCC2)nc2c1c(=O)[nH]c(=O)n2C (stereo unspecified)	-9%
91	CCOC(=O)c1nn(-c2ccc(OC)cc2)c(=O)c2c(NC(=O)c3ccc4ccccc4c3)scc12	4%
92	Cc1ccccc1-n1nc2c(c1NC(=O)COc1ccc(Cl)cc1)CS(=O)C2 (stereo unspecified)	5%
93	CCCCc1ccc(NC(=O)COC(=O)c2ccc3c(c2)C(=O)N(c2cccc(C)c2C)C3=O)cc1	58%
94	Cc1ccc(NC(=O)c2cnc(SCc3ccccn3)n(C)c2=O)cc1C	6%
95	Cc1c(NC(=O)c2cccc3c2-c2ccccc2C3=O)c(=O)n(-c2ccccc2)n1C	-17%
96	Cc1ccc(C)c2[nH]c(=O)c(CCNC(=O)c3ccccc3[N+](=O)[O-])cc12	-5%
97	COC(=O)c1ccc2c(c1)C(=O)/C(=C/c1ccccc1F)O2	-4%
98	COc1ccccc1NC(=O)c1ccc(S(=O)(=O)N(C)Cc2ccccc2)cc1	7%
99	O=C(NCCSc1c(-c2ccc(Cl)cc2)[nH]c2ccccc12)c1cc2ccccc2oc1=O	69%
100	CCOC(=O)c1c(C)oc2ccc(NS(=O)(=O)c3cc([N+](=O)[O-])ccc3Cl)cc12	-4%
101	CCOC(=O)c1cnc2ccc(OCC)cc2c1Nc1ccccc1C	8.8µg/mL*
102	NC(=O)c1ccc(NC(=O)COc2cccc3ccc(N4CCC(Cc5ccccc5)CC4)nc23)cc1	1%
103	CC12CC(NC(=O)N1c1cc(F)ccc1F)c1ccccc1O2 (stereo unspecified)	0%
104	Cc1n[nH]c(=O)nc1N/N=C/c1cccc(OCc2cccc(Cl)c2)c1	-19%
105	O=C(Cn1cnc2scc(-c3ccccc3)c2c1=O)c1ccccc1	63%
106	Cc1[nH]nc2c1C(c1ccc(-c3cccc([N+](=O)[O-])c3)o1)C(C#N)=C(N)O2 (stereo unspecified)	5%
107	CCc1ccc(S(=O)(=O)c2nnn3c2nc(NCc2ccccc2)c2ccccc23)cc1	2%
108	O=S(=O)(Nc1cccc(-c2ccc(N3CCOCC3)nn2)c1)c1ccc(Cl)c(Cl)c1	-16%
109	Cn1c(=O)c2c(SCC(=O)c3ccccc3)nc(-c3ccc([N+](=O)[O-])cc3)nc2n(C)c1=O	4%
110	COc1ccc(Cl)cc1NC(=O)CSc1ccc2nnc(-c3ccc(Cl)cc3)n2n1	-4%
111	Cc1ccccc1-n1nc2c(c1NC(=O)COc1ccc(Cl)cc1Cl)CS(=O)C2 (stereo unspecified)	22%
112	Cc1cccn2cc(-c3ccc(NC(=O)c4ccco4)cc3)nc12	-7%

4 structures already listed, arranged by count of non-hydrogen atoms, largest number first.
nr	compound	Mtb growth
107	CCc1ccc(S(=O)(=O)c2nnn3c2nc(NCc2ccccc2)c2ccccc23)cc1	2%
111	Cc1ccccc1-n1nc2c(c1NC(=O)COc1ccc(Cl)cc1Cl)CS(=O)C2 (stereo unspecified)	22%
105	O=C(Cn1cnc2scc(-c3ccccc3)c2c1=O)c1ccccc1	63%
112	Cc1cccn2cc(-c3ccc(NC(=O)c4ccco4)cc3)nc12	-7%

The results go on:
nr	compound	Mtb growth
113	O=C(CN1N=NC2C(=O)N(c3ccc(Br)cc3)C(=O)C21)Nc1ccc(F)c(Cl)c1 (stereo unspecified)	-18%
114	CCc1ccc(C2NC(=S)NC(C)=C2C(=O)OCCOC)cc1 (stereo unspecified)	6%
115	N#CC1=C(N)Oc2c(oc(CO)cc2=O)C1c1cccc(Cl)c1 (stereo unspecified)	1%
116	O=C(NNc1nc2c(F)cc(F)cc2s1)c1ccc(S(=O)(=O)N2CCc3ccccc3C2)cc1	53%
117	O=C1C(Cl)=C(N2CCN(Cc3ccccc3)CC2)C(=O)N1c1ccc(Cl)cc1Cl	3%
118	COCCCNC(=O)CC1SC(N)=NC1=O (stereo unspecified)	0%
119	CC(C)S(=O)(=O)c1cccc(C(=O)Nc2ccc3c(c2)C(=O)NC3=O)c1	-16%
120	CCc1ccc(S(=O)(=O)c2nnn3c2nc(N2CCC(C(N)=O)CC2)c2cc(Cl)ccc23)cc1	-10%
121	CCc1ccc(S(=O)(=O)c2nnn3c2nc(NCc2ccc(F)cc2)c2ccccc23)cc1	1%

High-throughput results from PubChem BioAssay.

These rows are one share of the data, so the mix of outcomes need not match the whole.
